# Compound activity from PubChem.
# ID4 SMM – binders of human ID4 protein; small molecule microarray, Flag-ID4 binding, fluorescence F/B; calls only; P47928; hit rate 1.2% among 31,000;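 active = spot signal over background at p below 0.07 in all four prints; compounds were printed on slides so no solution concentration is given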;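 note: a binder raises fluorescence above local background on the spot; about 2 pmol printed per array spot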
# Target sequence (P47928 whole entry, looked up): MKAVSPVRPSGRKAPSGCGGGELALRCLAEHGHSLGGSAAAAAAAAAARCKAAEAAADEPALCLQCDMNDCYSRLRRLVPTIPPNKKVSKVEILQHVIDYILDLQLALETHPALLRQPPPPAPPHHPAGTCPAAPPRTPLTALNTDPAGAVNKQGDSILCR
# Calls only; i = inactive; + = active, no number. These rows are one share of the data, so the mix of outcomes need not match the whole.
SMILES,ID4 SMM
CN(C)c1ccc2c(c1)[C@@H]1C[C@@H](CC(=O)NCc3ccc4c(c3)OCO4)O[C@H](CO)[C@@H]1O2,i
COc1ccc(C#Cc2cnc3c(c2)C(=O)N([C@H](C)CO)C[C@@H](C)[C@@H](CN(C)CC2CCOCC2)O3)cc1,i
Cn1c(SCC(=O)n2c3c(c4ccccc42)CCCC3)nnc1-c1cccc([N+](=O)[O-])c1,i
O=C(CCCN1C(=O)c2cccc3cccc(c23)C1=O)Nc1ccccc1[N+](=O)[O-],i
COC(=O)c1ccc([C@@H]2C=C(C(=O)NCc3ccccc3)O[C@H](OCCCCO)C2)cc1,i
C[C@@H]1CN([C@H](C)CO)C(=O)c2cc(C#CC3CCCC3)cnc2O[C@H]1CN(C)C(=O)C1CCC1,i
CNC[C@H]1Oc2cc(-c3ccccc3F)ccc2S(=O)(=O)N([C@@H](C)CO)C[C@@H]1C,i
O=C(CSc1nnc(-c2ccccc2O)n1-c1ccccc1)Nc1ccc(Oc2ccccc2)cc1,i
O=C(COc1ccc([N+](=O)[O-])cc1)Nc1ccc2oc(-c3ccccc3Br)nc2c1,i
O=C(NCc1ccco1)c1cccc(S(=O)(=O)N2CCCCC2)c1,i
COc1ccc(C)cc1NC(=O)c1ccccc1N(C)S(=O)(=O)c1ccccc1,i
C[C@H]1CN([C@@H](C)CO)C(=O)c2cc(Br)cnc2O[C@@H]1CN(C)C(=O)C1CCCCC1,i
CCCN(C)C[C@@H]1OCc2cn(nn2)CCCC(=O)N([C@@H](C)CO)C[C@@H]1C,i
O=C(C[C@H]1CC[C@H](NC(=O)Nc2ccc(C(F)(F)F)cc2)[C@H](CO)O1)NCCN1CCCC1,i
CC(C)(C)c1ccc(OCC(O)CN2CCN(CCO)CC2)cc1 (centres undefined),i
C[C@H](NC(=O)C[C@@H]1CC[C@H](NC(=O)C2CC2)[C@H](CO)O1)c1ccccc1,i
O=C(CSc1nnnn1-c1ccccc1F)N1c2ccccc2Sc2ccc(Cl)cc21,i
Cc1cc(N(CC(=O)Nc2ccc(C(F)(F)F)cc2)S(C)(=O)=O)ccc1Br,i
COc1ccc(NC(=O)CN(c2ccc(Cl)cc2)S(C)(=O)=O)cc1Cl,i
CC(=O)N(C)C[C@H]1Oc2ncc(-c3ccc(F)cc3)cc2C(=O)N([C@H](C)CO)C[C@@H]1C,i
COC(=O)c1cc(OC)c(OC)cc1NC(=O)CCN1C(=O)c2ccccc2C1=O,i
COc1ccccc1-c1cnc2c(c1)C(=O)N([C@H](C)CO)C[C@H](C)[C@@H](CN(C)Cc1cccnc1)O2,i
CO[C@@H]1CN(C)C(=O)c2ccc(NC(=O)C3CC3)cc2OC[C@@H](C)N(Cc2ccc(F)cc2)C[C@H]1C,i
CCC(=O)N[C@@H]1CC[C@@H](CC(=O)NCc2ccccc2F)O[C@H]1CO,i
COc1ccc(OC)c(NC(=O)c2c(NC(=O)CN3CCCC(C)C3)sc3c2CCC3)c1 (centres undefined),i
CC(Oc1ccc(C(C)(C)C)cc1)C(=O)Nc1ncn[nH]1 (centres undefined),i
O=C(C[C@@H]1C=C[C@@H](NC(=O)c2cccnc2)[C@H](CO)O1)NCCN1CCCCC1,i
COC(=O)c1cc(-c2ccccc2)sc1NC(=S)Nc1cn(C)nc1C,+
Cc1ccccc1NC(=O)CSc1nc2cc3ccccc3cc2[nH]1,i
Cc1cc(C)c(NC(=O)CN(c2cc(Cl)cc(Cl)c2)S(C)(=O)=O)c(C)c1,i
COc1cccc(-c2ccc3c(c2)O[C@H](CN(C)C(C)=O)[C@H](C)CN([C@H](C)CO)S3(=O)=O)c1,i
Cc1ccc(NC(=O)CC(N)C(=O)O)cc1 (centres undefined),i
CNC[C@H]1Oc2ncc(Br)cc2C(=O)N([C@@H](C)CO)C[C@@H]1C,i
Cc1ccccc1NC(=O)c1ccc(OCC(=O)Nc2ccccc2C(F)(F)F)cc1,i
CC(C(=O)N1CCN(C)CC1)N(c1ccccc1)S(C)(=O)=O (centres undefined),i
O=C(CSc1nnc(-c2ccncc2)n1-c1cccc(C(F)(F)F)c1)c1ccc(F)cc1,i
Cc1cccc(-c2noc(CN(C(=O)c3ccc([N+](=O)[O-])c(C)c3)C(C)C)n2)c1,i
CC(C)NC(=O)N(C)C[C@H]1Oc2c(cccc2N(C)C)C(=O)N([C@@H](C)CO)C[C@H]1C,i
C[C@@H]1CN([C@H](C)CO)S(=O)(=O)c2ccc(C#CC3CC3)cc2O[C@@H]1CN(C)Cc1ccncc1,i
CCOC(=O)c1cc(-c2ccccc2)sc1NC(=S)Nc1cnn(CC)c1C(N)=O,i
CCSc1ccccc1C(=O)Nc1ccc(S(=O)(=O)Nc2ncccn2)cc1,i
Cc1ccccc1-c1cnc2c(c1)C(=O)N([C@@H](C)CO)C[C@@H](C)[C@@H](CN(C)Cc1ccccc1F)O2,i
CCCN(C)C[C@@H]1Oc2cc(C#Cc3ccccc3F)ccc2S(=O)(=O)N([C@@H](C)CO)C[C@H]1C,i
O=C(C[C@@H]1C=C[C@@H](NC(=O)Cc2cccnc2)[C@H](CO)O1)Nc1ccccc1,i
C[C@@H]1CN([C@@H](C)CO)C(=O)c2cc(Br)cnc2O[C@H]1CN(C)C(=O)c1ccccc1,i
COc1ccc(-c2ccc(C#N)c(SCC(=O)Nc3cccc(C(F)(F)F)c3)n2)cc1,i
COC(=O)c1cccc(NC(=O)CN(c2ccc(Br)c(C)c2)S(C)(=O)=O)c1C,i
Cc1cc(C)nc(NS(=O)(=O)c2ccc(NC(=S)NC(=O)c3ccccc3)cc2)n1,i
O=C(NCC(O)c1ccccc1)c1ccc(Cl)c(S(=O)(=O)N2CCOCC2)c1 (centres undefined),i
CCC/C=C/C=C/C1C[C@@H](O)[C@@H](O)C(=O)[C@H]1CO (some centres undefined),i
C[C@@H]1CN([C@@H](C)CO)C(=O)c2cc(C#CC3CCCCC3)cnc2O[C@@H]1CN(C)Cc1ccncc1,i
CC(=O)c1ccc(N2CCN(C(=S)Nc3ccc(S(=O)(=O)Nc4ncccn4)cc3)CC2)cc1,i
C[C@@H]1CN([C@@H](C)CO)C(=O)c2cc(-c3ccc(C#N)cc3)cnc2O[C@@H]1CN(C)CC1CCOCC1,i
CN(C)c1ccc2c(c1)[C@H]1C[C@@H](CC(=O)NCc3ccc4c(c3)OCO4)O[C@@H](CO)[C@H]1O2,i
CCC(=O)N[C@@H]1CC[C@H](CC(=O)NCc2ccccc2F)O[C@@H]1CO,i
Cc1ccc(S(=O)(=O)N(C)CC(=O)Nc2ccccc2[N+](=O)[O-])cc1,i
COc1ccc(S(=O)(=O)n2cc(-c3ccc(C)cc3)c(N)n2)c(OC)c1,i
CC(=O)N(C)C[C@H]1Oc2ncc(C#CCc3ccccc3)cc2C(=O)N([C@@H](C)CO)C[C@@H]1C,i
O=C(CSc1nnc2sc3ccccc3n12)Nc1c(Cl)cccc1Cl,i
CSc1nn(C)c2cnn(C)c(=O)c12,i
# (more compounds)
SMILES,ID4 SMM
CCC(=O)N(C)C[C@@H]1Oc2ncc(Br)cc2C(=O)N([C@H](C)CO)C[C@H]1C,i
O=C(Nc1cccc(C(F)(F)F)c1)c1ccc(NCc2ccco2)c([N+](=O)[O-])c1,i
O=C(C[C@@H]1C=C[C@@H](NC(=O)c2cccc(F)c2)[C@H](CO)O1)Nc1nccs1,i
CCS(=O)(=O)N[C@H]1CC[C@H](CC(=O)N2CCCCC2)O[C@H]1CO,i
O=C(O)c1ccccc1Nc1cccc(C(F)(F)F)c1,i
COc1ccc(OCc2nc3ccccc3n2Cc2c(F)cccc2Cl)cc1,i
C[C@@H]1CN([C@@H](C)CO)C(=O)c2cc(Br)cnc2O[C@@H]1CN(C)C(=O)C1CCC1,i
COc1ccccc1NC(=O)Cn1nc([N+](=O)[O-])c(Br)c1C,i
CO[C@@H]1CN(C)C(=O)c2ccc(NC(=O)C3CCOCC3)cc2OC[C@@H](C)N(C)C[C@H]1C,i
O=C(CSc1nnc(-c2ccc(Cl)cc2)o1)N1c2ccccc2Sc2ccccc21,i
CCC(=O)N[C@@H]1CC[C@@H](CC(=O)NCC2CCCCC2)O[C@H]1CO,i
CCOC(=O)c1c(NC(=O)c2ccc(C)c(S(=O)(=O)N3CCCCCC3)c2)sc2c1CCC2,i
O=C(CSc1n[nH]c(-c2ccncc2)n1)Nc1cccc2ccccc12,i
CC1(C)OC(=O)C=C[C@@]2(C)C1C[C@@H](O)[C@]1(C)C2CC[C@@]2(C)[C@H](c3ccoc3)OC(=O)C3OC321 (some centres undefined),i
C[C@H](CO)N1C[C@H](C)[C@H](CN(C)C(=O)C2CC2)OCc2ccccc2-c2ccccc2C1=O,i
C[C@@H]1CN([C@@H](C)CO)C(=O)c2cc(/C=C/c3ccccc3)cnc2O[C@H]1CN(C)Cc1cccnc1,i
COc1cccc(-c2cnc3c(c2)C(=O)N([C@H](C)CO)C[C@@H](C)[C@@H](CN(C)C(C)=O)O3)c1,i
O=C1N(CCS(=O)(=O)c2ccccc2)Cc2ccccc2C[C@@]12COC(c1ccc(OCCCO)cc1)=N2,i
CCCN(C)C[C@H]1Oc2cc(C#CCOC)ccc2S(=O)(=O)N([C@H](C)CO)C[C@H]1C,i
CN1CCN(C(=O)C[C@H]2CC[C@H](NC(=O)c3ccc4c(c3)OCO4)[C@@H](CO)O2)CC1,i
O=C(N[C@@H]1CC[C@H](CCn2cc(-c3ccccc3)nn2)O[C@@H]1CO)c1ccccc1F,i
COc1ccc(NC(=O)CN(c2cccc(Cl)c2)S(C)(=O)=O)cc1,i
N#Cc1c(NC(=O)Cn2cnc3scc(-c4ccccc4)c3c2=O)sc2c1CCC2,i
Cc1cc(I)ccc1NC(=O)CN(c1cccc(C(F)(F)F)c1)S(C)(=O)=O,i
C[C@@H]1CN([C@@H](C)CO)C(=O)Cc2cc(NC(=O)CCC(F)(F)F)ccc2O[C@@H]1CN(C)CC1CC1,i
COc1ccc(OC)c2c(C)cc(Cl)nc12,i
C[C@H](CO)N1C[C@H](C)[C@H](CN(C)Cc2ccccc2)Oc2ncc(-c3cccc(C#N)c3)cc2C1=O,i
C[C@@H]1CN([C@@H](C)CO)C(=O)c2cc(-c3ccccc3F)cnc2O[C@H]1CN(C)C(=O)CN(C)C,i
CC(C)CC1(C)N=C(c2ccccc2)C(=S)N1 (centres undefined),i
O=C(CSc1nnc2ccccn12)Nc1c(Cl)cc(Cl)cc1Cl,i
Cc1ccc(NC(=O)CCN2C(=O)c3ccccc3S2(=O)=O)cc1Cl,i
COC(=O)C[C@@H]1CC[C@H](NS(=O)(=O)c2ccc(OC)cc2)[C@@H](CO)O1,i
C[C@H]1CN([C@@H](C)CO)C(=O)c2ccccc2-c2ccccc2CO[C@H]1CN(C)C,i
O=C(C[C@@H]1CC[C@H](NC(=O)Nc2ccc3c(c2)OCO3)[C@@H](CO)O1)NCc1ccc(Cl)cc1,i
COc1cccc(-c2nnc(SCC(N)=O)n2-c2ccc(Cl)cc2)c1,i
C[C@H](CO)N1C[C@H](C)[C@H](CN(C)Cc2cccc(C(=O)O)c2)Oc2ncc(C#C[C@@H](C)O)cc2C1=O,i

# 16 successive entries from above, quoted:
SMILES,ID4 SMM
O=C(N[C@@H]1CC[C@H](CCn2cc(-c3ccccc3)nn2)O[C@@H]1CO)c1ccccc1F,i
COc1ccc(NC(=O)CN(c2cccc(Cl)c2)S(C)(=O)=O)cc1,i
N#Cc1c(NC(=O)Cn2cnc3scc(-c4ccccc4)c3c2=O)sc2c1CCC2,i
Cc1cc(I)ccc1NC(=O)CN(c1cccc(C(F)(F)F)c1)S(C)(=O)=O,i
C[C@@H]1CN([C@@H](C)CO)C(=O)Cc2cc(NC(=O)CCC(F)(F)F)ccc2O[C@@H]1CN(C)CC1CC1,i
COc1ccc(OC)c2c(C)cc(Cl)nc12,i
C[C@H](CO)N1C[C@H](C)[C@H](CN(C)Cc2ccccc2)Oc2ncc(-c3cccc(C#N)c3)cc2C1=O,i
C[C@@H]1CN([C@@H](C)CO)C(=O)c2cc(-c3ccccc3F)cnc2O[C@H]1CN(C)C(=O)CN(C)C,i
CC(C)CC1(C)N=C(c2ccccc2)C(=S)N1 (centres undefined),i
O=C(CSc1nnc2ccccn12)Nc1c(Cl)cc(Cl)cc1Cl,i
Cc1ccc(NC(=O)CCN2C(=O)c3ccccc3S2(=O)=O)cc1Cl,i
COC(=O)C[C@@H]1CC[C@H](NS(=O)(=O)c2ccc(OC)cc2)[C@@H](CO)O1,i
C[C@H]1CN([C@@H](C)CO)C(=O)c2ccccc2-c2ccccc2CO[C@H]1CN(C)C,i
O=C(C[C@@H]1CC[C@H](NC(=O)Nc2ccc3c(c2)OCO3)[C@@H](CO)O1)NCc1ccc(Cl)cc1,i
COc1cccc(-c2nnc(SCC(N)=O)n2-c2ccc(Cl)cc2)c1,i
C[C@H](CO)N1C[C@H](C)[C@H](CN(C)Cc2cccc(C(=O)O)c2)Oc2ncc(C#C[C@@H](C)O)cc2C1=O,i

# Going on with the list.
SMILES,ID4 SMM
CCN(C(=O)CSc1nc2sc(C)c(C)c2c(=O)n1-c1ccccc1)c1ccccc1,i
C[C@@H]1CN([C@@H](C)CO)C(=O)c2cc(C#Cc3cccnc3)cnc2O[C@H]1CN(C)S(C)(=O)=O,i
CC(C)(C)Sc1nc2ccccc2[nH]c1=S,i
Nc1nnc(SCC(=O)Nc2ccccc2N2CCOCC2)s1,i
O=C(C[C@@H]1C=C[C@H](NC(=O)Nc2cccc(F)c2)[C@@H](CO)O1)NCC1CCCCC1,i
O=C(CCn1cnc2ccccc2c1=O)Nc1ccc2c(c1)Cc1ccccc1-2,i
C[C@@H]1CN([C@@H](C)CO)C(=O)c2cc(C3=CCCC3)cnc2O[C@H]1CN(C)C(=O)C1CC1,i
COc1ccccc1S(=O)(=O)N[C@@H]1C=C[C@@H](CC(=O)NCc2cccc(F)c2)O[C@@H]1CO,i
O=C(CSc1nc2cc3ccccc3cc2[nH]1)Nc1cccc(C(F)(F)F)c1,i
C[C@@H]1CN([C@@H](C)CO)C(=O)c2cc(-c3cccc(C#N)c3)cnc2O[C@@H]1CN(C)Cc1ccccc1,i
COC(=O)c1ccccc1NC(=O)c1nc2ncccn2n1,i
Cc1noc(C)c1NC(=O)N[C@H]1CC[C@@H](CC(=O)N2CCCCC2)O[C@H]1CO,i
CC(C)c1cn(CC[C@H]2CC[C@@H](NC(=O)C3CCCCC3)[C@@H](CO)O2)nn1,i
COc1ccccc1NC(=O)CSc1nccc(=O)[nH]1,i
